From PubChem
Menin MLL FP FL – menin-MLL binding inhibition, fluorescein peptide | Fluorescence polarization, fluorescein-MLL peptide displacement from menin | FP activity change, % at 61.4 µM | 290,000 tested, under 10 active; inconclusive = falling polarisation curve, or a change in total fluorescence; inactive = total fluorescence flat and polarisation flat or rising; no compound was filed as active; the % refers to the polarisation; negative = inhibition;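 further: % of control where 0% means no effect; inhibitors lower the polarisation; unlabelled MLL peptide was the positive control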
TRPML1 inh – human mucolipin-1 channel inhibition; TRPML1-inducible cells, Ca2+ dye fluorescence, FDSS; stronger effect = lower value; inhibition of EC80 agonist-evoked calcium signal; activity change, negative = inhibition, % (test concentration not listed); actives 0.02% (n = 390,000); AID 624415; in the data active means activity change below about -50%; inconclusive means about -30% to -50%; inactive means above about -30%;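 further: stimulus is agonist 54-4 at its EC80 concentration; on the % scale 0 is the no-effect control and ±100 the full control effect; compound concentration not given in the record; the text of the record puts the active cut at -80%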
Target sequence (Q9GZU1 whole entry, looked up): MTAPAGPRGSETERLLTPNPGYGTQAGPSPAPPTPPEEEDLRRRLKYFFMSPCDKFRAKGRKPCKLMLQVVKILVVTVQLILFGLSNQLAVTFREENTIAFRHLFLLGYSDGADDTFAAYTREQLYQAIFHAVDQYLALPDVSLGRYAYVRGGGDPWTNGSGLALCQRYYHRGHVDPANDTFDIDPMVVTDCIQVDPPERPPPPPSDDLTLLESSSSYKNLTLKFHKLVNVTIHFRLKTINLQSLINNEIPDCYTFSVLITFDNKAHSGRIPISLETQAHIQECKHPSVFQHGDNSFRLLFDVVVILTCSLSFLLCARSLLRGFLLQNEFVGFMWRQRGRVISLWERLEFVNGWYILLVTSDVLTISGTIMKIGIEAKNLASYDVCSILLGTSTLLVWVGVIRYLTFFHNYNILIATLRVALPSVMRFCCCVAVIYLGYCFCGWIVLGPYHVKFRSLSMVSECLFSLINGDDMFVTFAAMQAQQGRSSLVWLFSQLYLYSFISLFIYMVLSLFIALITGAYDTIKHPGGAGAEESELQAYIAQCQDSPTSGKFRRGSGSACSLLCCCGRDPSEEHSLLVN
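Tet-induced TRPML1-DL cells loaded with Ca8 no-wash calcium dye were read kinetically on FDSS. Compound addition was followed by EC80 agonist 54-4 (4 uM final); inhibition was read over 110 s.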
gsp ag – gsp mutant agonism. gsp mutant cells, cAMP HTRF, 30 min; control for the full effect not named in the record. Potency, µM (titrated, usually from 76.9 µM), for the others: at the top dose activation (cAMP increase), actives largely listed as activators. actives 0.13% (n = 340,000). AID 624287; active = well fitted activation curve with a large enough effect; inconclusive = small, poorly fitted or top-dose-only effect, or another doubt; inactive = no such curve, though single readings can be large or run the other way; cell line not stated here;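 further: phosphodiesterase inhibitor Ro 20-1724 added with compounds to block cAMP breakdown; potency means the concentration at half of the fitted maximal effect; nearly all actives have a fitted effect of over 60% in size; about a fifth of the inactives were tested at one dose only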
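Cells in DMEM/10% FBS with G418 were pretreated with compounds in DMSO plus […] (300 uM stock) for 30 min at 37C. cAMP was measured by HTRF (cAMP-d2 plus anti-cAMP antibody-K) after 30 min at room temperature.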
gsp antag – gsp mutant antagonism; gsp-mutant cells, cAMP HTRF, 30 min; control for the full effect not named in the record; Potency, µM (top dose mostly 76.9 µM), for inactives: at the top dose activity change, negative = inhibition, actives largely listed as inhibitors; actives 0.4% (n = 340,000); AID 624288; active = falling curve of any shape with a large fitted effect; inconclusive = falling curve, mostly with a smaller effect; inactive = flat or rising curve; cell line not stated here;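 further: intracellular cAMP measured with PDE inhibitor Ro 20-1724 present during compound exposure; potency means the concentration at half of the fitted maximal effect; on the % scale 0 is the no-effect control and ±100 the full control effect; nearly all actives have a fitted effect of over 65% in size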
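Cells, 2000/well, grown 16–24 h in DMEM 10% FBS with 0.5 mg/ml G418, then compounds plus […] (300 uM addition stock), 30 min at 37C. cAMP read by HTRF (cAMP-d2 and anti-cAMP antibody-K in lysis buffer) after 30 min RT.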
Sfp inh – inhibitors of Bacillus subtilis Sfp phosphopantetheinyl transferase; Q9F4F7; Biochemical Sfp PPTase activity, qHTS; Potency, µM, inactives show max response, negative = inhibition, actives largely listed as inhibitors; actives 3.5% (n = 310,000); AID 1490; active means well fitted inhibition curve with a large enough effect; inconclusive means small, poorly fitted or top-dose-only effect, or another doubt; inactive means no such curve, though single readings can be large or run the other way;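 further: the enzyme is Sfp with the accession as filed and its product quenches rhodamine fluorescence; potency means the concentration at half of the fitted maximal effect; 0% = enzyme reaction without inhibitor and -100% = no enzyme wells; top concentration of the series not given in the record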
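Buffer: 50 mM Hepes-Na pH 7.6, 10 mM MgCl2, 0.01% Nonidet P-40, 0.01% BSA. Enzyme 15 nM, pre-exposed to compound 15 min; substrates then added and fluorescence change tracked over 30 min.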
TRPV1 PAM – human TRPV1 potentiation. Q8NER1. TRPV1-expressing cells, Fluo-8 calcium influx, capsaicin EC20 potentiation; host cell line not named in the record; control for the full effect not named in the record. potentiation, % at 8.33 µM. actives 0.02% (n = 320,000). AID 540277; active means potentiation above 80%; inconclusive means 30% to 80%; inactive means below 30%; further: 0% is about no effect
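Fluo-8 calcium influx in TRPV1-expressing cells, kinetic read (ex 480/em 520 nm). Compound added and read 3 min for agonist activity, followed by capsaicin at EC20 final and 2 min further read for enhancement.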
ClpP mod – qHTS Assay for Activators of ClpP; ATP-dependent Clp protease proteolytic subunit (Bacillus subtilis (strain 168)), P80244; purified B. subtilis ClpP, FRET peptide cleavage, 20 min; Potency, µM (series often up to 57.5 µM), for the others: at the top dose activity change, negative = active; actives 1.9% (n = 340,000); AID 651965, 2013; active = well fitted falling curve with a large enough effect; inconclusive = small, poorly fitted or top-dose-only effect; inactive = no such curve, though single readings can be large or run the other way; further: potency means the concentration at half of the fitted maximal effect; the source files actives as falling curves though it sought activators and does not explain the sign; nearly all actives have a fitted effect of over 65% in size; many hits overshoot -100%
Target sequence (P80244 whole entry, looked up): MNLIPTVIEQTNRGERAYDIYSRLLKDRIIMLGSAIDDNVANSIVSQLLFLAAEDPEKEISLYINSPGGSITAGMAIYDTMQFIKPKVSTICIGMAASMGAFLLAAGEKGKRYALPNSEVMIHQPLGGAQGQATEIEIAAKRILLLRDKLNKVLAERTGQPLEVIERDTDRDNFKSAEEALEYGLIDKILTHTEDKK
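Purified B. subtilis ClpP, 10 microg/mL final in Tris/HCl pH8 with KCl, BSA, glycerol and Tween-20, cleaved an Abz/nitrotyrosine-quenched decapeptide. Fluorescence (ex 320, em 430) was read at 0 and 20 min at room temperature. Delta was normalized to 5.8 microM ADEP and DMSO/no-enzyme controls.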
The depositor's hits bear a star; ? = inconclusive; . = no result given; [ ] = another dose, or the depositor's remark.

Each structure is followed by: ClpP mod, TRPML1 inh, Sfp inh, Menin MLL FP FL, TRPV1 PAM, gsp antag, gsp ag
(1) CN(/C(=N/S(=O)(=O)c1cccs1)c1ccccc1)c1ccccc1
    0.7%, 4.5, 12.1%, 3.8, -8.2, -11.7%, -5.6%[15.4 µM]
(2) O=C1OCC(Cn2c3ccccc3c3ccccc32)O1 (configuration not stated)
    -5.8%, 15.8, 7.0%, -0.4, -1.1, -0.4%, 48.1%
(3) O=C(O)CNC(=O)C1(N2C(=O)c3ccccc3C2=O)CCCC1
    -1.1%, 5.7, ., ., ., 8.8%, -3.3%[15.4 µM]
(4) CCOC(=O)N1CCN(Cc2cc(=O)oc3ccc(Cl)cc23)CC1
    -2.7%, 16.4, 4.0%, 5.0, 3.4, 8.3%, -25.1%
(5) Cc1ccc(NC(=O)N2CCCCCC2)c(C)c1
    0.6%, -6.0, 25.7%, 1.3, 0.8, 8.0%, -1.6%
(6) C=C1C(=O)OC2C1CCC(C)C1C=CC(=O)C12C (configuration not stated)
    0.8%, -6.5, ., ., ., 15.2%, -0.7%
(7) Cc1onc(-c2ccccc2Cl)c1C(=O)N1CCN(c2nc3ccccc3s2)CC1
    -1.5%, 15.9, -2.9%, 1.3, 4.4, -28.4%, 4.9%
(8) Cc1cc(C)cc(-n2c(C)cc(C=C(C#N)C#N)c2C)c1
    -3.9%, 19.4, 15.1%, 6.9, 10.6, 1.8%, ?
(9) COc1ccc(CC(=O)Nc2c3c(nn2-c2cccc(C)c2C)CS(=O)C3)cc1 (configuration not stated)
    2.9%, 5.8, 3.8%, -1.5, -7.0, -1.0%, 2.8%[15.4 µM]
(10) O=C(N/N=C/c1ccc(OC(=O)c2cccs2)cc1)c1ccccn1
    -12.5%, 0.7, 5.8%, 0.1, -16.4, 5.6%, -4.8%[15.4 µM]
(11) COC(=O)CCCNC(=O)c1ccc(OC2CCN(CCc3ccccc3)CC2)cc1
    1.5%, -3.9, -4.7%, -5.1, 3.5, 7.1%, -0.9%
(12) COc1ccc(NC(=O)CN(C)C(=O)/C=C/c2ccc(S(=O)(=O)N3CCCCCC3)cc2)cc1
    -12.2%, 2.0, ., ., -12.5, 3.3%, -51.7%[inhibitor]
(13) COc1cc(/C=N/NC(=O)CSc2ccccn2)ccc1OC(C)C
    ., -1.6, 12.9%, 1.1, 5.0, 2.6%, -10.4%[15.4 µM]
(14) O=C(Nc1ccc(Cl)cn1)C1C(c2ccccc2)C1(Cl)Cl (configuration not stated)
    ., -11.3, -0.9%, 2.2, -7.4, -5.1%, -0.3%[15.4 µM]
(15) COc1cc2c(cc1OC)C(C(=O)Nc1ccc3c(c1)OCCO3)C(c1cccnc1)N(C)C2=O (configuration not stated)
    -2.6%, 9.9, 13.9%, 4.3, 1.4, 5.2%, 0.3%[15.4 µM]
(16) COc1cc2c(=O)n(CCCN3CCOCC3)c(=S)[nH]c2c(OC)c1OC
    -1.3%, -4.9, -16.8%, 3.2, 17.6, -5.9%, ?
(17) CN(C1CCCCC1)S(=O)(=O)c1cccc(C(=O)OCC(=O)NC2CCCc3ccccc32)c1 (configuration not stated)
    -1.7%, 11.3, 19.4%, 9.4, 4.8, -8.0%, 31.6%[15.4 µM]
(18) CCC(Oc1ccccc1F)C(=O)Nc1ccc2c(c1)n(C)c(=O)n2C (configuration not stated)
    -0.6%, -3.0, 1.0%, -0.1, 0.8, 4.6%, 0.6%
(19) O=C(O)c1sc(C(=O)O)c(-c2ccccc2)c1-c1ccccc1
    -0.2%, -19.8, ., ., ., ., ?
(20) CCP(=O)(CC)C(C)(C)CP(=O)(c1ccccc1)c1ccccc1
    -0.5%, -7.5, 11.8%, 2.0, 4.3, 9.7%, 3.4%
(21) Cc1ccccc1C(=O)c1c[nH]c(C(N)=O)c1
    -1.3%, -0.5, 11.4%, 2.6, 3.3, -8.0%, 2.2%
(22) COc1cc(NC(C)=O)c2ncccc2c1[N+](=O)[O-]
    22.4µM*, 35.8, -21.9%, -6.4, 4.3, -3.7%, -1.1%[15.4 µM]
(23) CC(CCOS(N)(=O)=O)c1ccccc1 (configuration not stated)
    -2.7%, -1.6, 5.2%, -0.6, 11.8, 11.4%, .
(24) Cc1ccc(C(=O)CN(CCCC(N)=O)S(=O)(=O)c2ccc([N+](=O)[O-])cc2)cc1
    0.6%, 14.4, ., ., 20.6, -0.9%, ?
(25) COC(=O)CSc1ccc(S(=O)(=O)N2CCOCC2)cc1[N+](=O)[O-]
    1.3%, -10.5, 4.8%, 4.7, 11.1, -5.2%, -0.1%
(26) CN(c1ccc(O)cc1)c1nc(O)c(C2=c3ccccc3=NC2=O)s1
    -0.7%, 5.2, ., ., ., 14.1µM*, 7.5%
(27) O=C(COC(=O)C1COc2ccccc2O1)NC(=O)NC1CCCCC1 (configuration not stated)
    -0.8%, 10.6, 7.5%, 2.0, 9.0, 2.9%, -16.9%
(28) CC1CCCCC1NC(=O)CN1C(=O)CSc2cc(S(=O)(=O)N3CCCCCC3)ccc21 (configuration not stated)
    -2.7%, 5.2, 6.5%, 3.2, -12.2, -7.1%, -2.8%[15.4 µM]
(29) Cc1ccc(OCc2cc(C(=O)N(C)C3CCCc4ccccc43)no2)cc1C (configuration not stated)
    -6.5%, -8.2, ., ., ., ., ?
(30) O=C(O)c1ccc(CNC(=O)c2ccc(S(=O)(=O)N3CCCC3)cc2)cc1
    1.8%, 9.8, ., ., ., ., 15.1%

Individual results from the entries so far.
entry 18 | Sfp inh: 1.0%
entry 21 | Sfp inh: 11.4%

Two compounds from above, showing only ClpP mod.
| # | canonical_smiles | ClpP mod |
| --- | --- | --- |
| 23 | CC(CCOS(N)(=O)=O)c1ccccc1 (configuration not stated) | -2.7% |
| 24 | Cc1ccc(C(=O)CN(CCCC(N)=O)S(=O)(=O)c2ccc([N+](=O)[O-])cc2)cc1 | 0.6% |

Back to the main list with the five entries that preceded the break.
Each structure is followed by: ClpP mod, TRPML1 inh, Sfp inh, Menin MLL FP FL, TRPV1 PAM, gsp antag, gsp ag
(26) CN(c1ccc(O)cc1)c1nc(O)c(C2=c3ccccc3=NC2=O)s1
    -0.7%, 5.2, ., ., ., 14.1µM*, 7.5%
(27) O=C(COC(=O)C1COc2ccccc2O1)NC(=O)NC1CCCCC1 (configuration not stated)
    -0.8%, 10.6, 7.5%, 2.0, 9.0, 2.9%, -16.9%
(28) CC1CCCCC1NC(=O)CN1C(=O)CSc2cc(S(=O)(=O)N3CCCCCC3)ccc21 (configuration not stated)
    -2.7%, 5.2, 6.5%, 3.2, -12.2, -7.1%, -2.8%[15.4 µM]
(29) Cc1ccc(OCc2cc(C(=O)N(C)C3CCCc4ccccc43)no2)cc1C (configuration not stated)
    -6.5%, -8.2, ., ., ., ., ?
(30) O=C(O)c1ccc(CNC(=O)c2ccc(S(=O)(=O)N3CCCC3)cc2)cc1
    1.8%, 9.8, ., ., ., ., 15.1%
(31) Cn1c(=O)[nH]c(=O)c2c1nc(N1CCCCCC1)n2CC(=O)c1ccccc1
    ., ., 13.7%, -0.1, 29.9, ., .
(32) CC(Sc1nnc(-c2ccccc2)c(-c2ccccc2)n1)C(=O)NCC1CCCO1 (configuration not stated)
    ., -9.6, ., ., ., -9.8%, -26.8%
(33) COCCNC(=O)C1CC2Cn3c(nc4ccccc43)C2N1C (configuration not stated)
    -2.5%, -8.3, -2.4%, 6.4, -7.5, 14.7%, .
(34) CCn1c2c(c3cc(OCC(C)C)ccc31)CCCC2=O
    28.2µM*, -4.5, -16.1%, 3.3, -1.7, 1.3%, 20.5%
(35) O=C(COC(=O)c1ccccc1NC(=O)c1ccccc1)c1cccc([N+](=O)[O-])c1
    -0.8%, 1.3, -0.3%, -0.4, -4.6, 10.2%, -44.9%[inhibitor]
(36) CCOc1ccc(S(=O)(=O)Nc2cc(Sc3ncn[nH]3)c3oc(=O)sc3c2)cc1
    ., ., 7.94µM*, -1.0, 4.4, ., .
(37) CCOC(=O)c1[nH]c2ccc(OC)cc2c1NS(=O)(=O)c1ccc(OC)cc1OC
    -24.7%, -7.7, 11.1%, 4.5, -4.2, ?, ?
(38) Cc1nc2nc(C)c(NS(=O)(=O)c3ccc4c(c3)CCCC4)c(=O)n2[nH]1
    ., 28.6, 16.0%, -9.3, ?, 6.1%, -26.6%
(39) O=C(CN(CCN1CCOCC1)C(=O)Cn1nnc(-c2ccc(F)cc2)n1)NC1CCCCC1
    0.1%, ?, -8.7%, -0.8, 21.5, 5.2%, 2.3%
(40) O=C(NNC(=O)C1CC1)c1cc2cc3ccccc3nc2s1
    -13.7%, -1.5, -2.9%, -0.3, 2.9, 2.5%, ?
(41) CC[C@]12c3[nH]c4cc(CCC(=O)N(C)C)ccc4c3CCN1C(=O)[C@@H](CC(=O)NCc1ccc(OC)c(OC)c1)C[C@@H]2C(=O)N1CCN(C(=O)c2ccco2)CC1
    -7.3%, -15.7, ., ., ., -1.0%, .
(42) COC(=O)c1sc(N2C(=O)C(O)=C(C(=O)c3ccc(C)o3)C2c2ccc([N+](=O)[O-])cc2)nc1C (configuration not stated)
    1.6%, 2.7, 26.3%, ., -14.8, -31.5%, -9.7%
(43) C/C(CC(=O)Nc1ccc(Cl)cc1Cl)=N\NC(=O)C(=O)N1CCCC1
    ., 4.2, 10.4%, -0.7, -16.6, 5.4%, -7.9%[15.4 µM]
(44) COc1ccc(CN(C)C(=O)COC(=O)c2c(C)nn(-c3ccc(F)cc3)c2Cl)cc1
    -1.4%, 8.3, ., ., -6.1, -25.6%, -2.0%
(45) Fc1ccc2c(c1)C(c1ccncc1)=NNC(c1ccc(Cl)cc1)=N2
    2.2%, -0.9, -4.4%, 1.2, ., -17.0%, 20.7%
(46) Cc1cc(NC(=O)CCN2CCN(C/C=C/c3ccccc3)CC2)ccc1Br
    0.4%, -4.6, ?, 1.7, 18.3, 2.8%, 3.8%[15.4 µM]
(47) CN(C(=O)c1ccc(NC(=O)Cc2ccc([N+](=O)[O-])cc2)cc1)C1CC1
    -4.4%, -2.7, ., ., ., 0.1%, -11.8%
(48) COC(=O)c1sccc1NC(=O)Nc1cccc(F)c1
    ., 28.9, 8.4%, -0.6, -8.0, -18.2%, -20.5%
